High-throughput results deposited in PubChem BioAssay by several laboratories.
rRNA inh HTS – inhibits bacterial ribosomal RNA function over humanized ribosomes | E. coli WT GFP vs humanized-ribosome RFP mutants, fluorescence, 24 h; active compounds read low; DMSO median 0, no signal -100 | GFP signal change (wild-type ribosome), % (no concentration beside the values) | 350,000 compounds, 1.6% hits | AID 720706;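 active = significant combined selectivity score with lowered wild-type GFP, culture density cut under 30%, mutant RFP and density less affected; inactive = any of these conditions unmet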; also: one replicate is shown; some compounds called inactive have numbers as strong as hits
FGF22 binding – shifts melting point of recombinant human FGF22; recombinant FGF22 thermal shift, SYPRO orange fluorescence; percent of sucrose octasulfate shift, DMSO zero; Q9HCT0; 340,000 compounds, 1.5% hits; AID 651658; calls only at 9.99 µM;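 active = melting point raised past a set limit in the mean and every replicate; inconclusive = no clear call; three in four hits are not shown here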
Vif A3G – HIV-1 Vif–A3G interaction blockers – biochemical, TR-FRET, GST-Vif 1-94, biotin-A3G peptide, dose response retest, primary screen (AID 1117319); TR-FRET GST-Vif / biotin-A3G peptide binding; higher % means a stronger effect; test concentration not given here; strong numbers were not always called active; inhibition, %; hits with a dose series show IC50 in µM; 260,000 compounds, 0.57% hits;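 active = above the screen mean plus three standard deviations and confirmed in dose response; inconclusive = results disagree or hit not tested in dose response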;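 also: Vif residues 1-94 fused to GST binding biotinylated APOBEC3G peptide 110-148; 0% = full assay without inhibitor and 100% = GST in place of GST-Vif; retest series ran down from 100 µM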
HNF4A DNA FP – change in binding of human HNF4 alpha to DNA. HNF4a-FITC DNA binding, fluorescence polarization, 1 h. activity change, % at 10 µM. AID 1224865. 360,000 compounds, 0.3% hits; in the data active = activity change above about 30%, passing the limit was not always enough;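 also: controls were the assay level and a saturating level of protein; the project sought stronger binding though the title names inhibitors; some compounds called inactive have numbers as strong as hits; positive values seem to mean higher polarization but the record does not say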
Target sequence (P41235 whole entry, looked up): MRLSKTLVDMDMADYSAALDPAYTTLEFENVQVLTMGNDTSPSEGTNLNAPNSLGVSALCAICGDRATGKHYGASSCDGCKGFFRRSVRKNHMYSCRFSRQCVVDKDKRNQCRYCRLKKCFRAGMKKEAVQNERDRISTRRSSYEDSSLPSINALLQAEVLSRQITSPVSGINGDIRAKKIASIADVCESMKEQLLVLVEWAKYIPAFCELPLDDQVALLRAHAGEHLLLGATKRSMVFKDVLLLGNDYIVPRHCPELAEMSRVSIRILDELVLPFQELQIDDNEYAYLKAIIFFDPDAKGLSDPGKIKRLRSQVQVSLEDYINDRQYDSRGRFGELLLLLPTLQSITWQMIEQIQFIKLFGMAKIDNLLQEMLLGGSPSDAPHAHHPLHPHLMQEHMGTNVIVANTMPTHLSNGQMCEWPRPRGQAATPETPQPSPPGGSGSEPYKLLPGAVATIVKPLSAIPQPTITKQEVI
E coli growth – blocks Escherichia coli growth; OD600, 23 h; active compounds read low; OD600 absorbance (no concentration beside the values); 330,000 compounds, 0.21% hits; AID 1053175;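 active = OD600 absorbance below the run mean of sample wells minus 3.6 SD, in any replicate, cut at about 0.56 in these data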;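 also: stock transfer was 300 nL into about 60 µL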
ALR H2O2 inh – inhibitors of human sulfhydryl oxidase ALR | inhibition, % (no concentration beside the values) | 290,000 compounds, 3.8% hits | purified ALR, DTT oxidation, H2O2 HRP-luminol luminescence | P55789;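 active = mean and each replicate at 75% or more; inconclusive = only one of the two met; inactive = neither met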;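 also: stock transfer was 7.5 nL into about 7.5 µL; 0% = neutral wells and 100% = wells with inactivated enzyme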
MLL AF4-AF9 inh – MLL-AF4/AF9 protein interaction inhibition | P42568 | AlphaScreen, biotin-AF4 peptide binding to FLAG-AF9 | inhibition, % at 10 µM | 350,000 compounds, 0.47% hits | AID 651704;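 active = every replicate reaching a set inhibition limit, whatever the replicate mean, cut at about 25% in these data; inconclusive = mean inhibition reaches that limit but some replicates miss it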;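 also: 0% = plate neutral control median and 100% = total signal loss; the record names both 10 and 1 µM as test concentration; the first replicate is given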
Target sequence (P42568 whole entry, looked up): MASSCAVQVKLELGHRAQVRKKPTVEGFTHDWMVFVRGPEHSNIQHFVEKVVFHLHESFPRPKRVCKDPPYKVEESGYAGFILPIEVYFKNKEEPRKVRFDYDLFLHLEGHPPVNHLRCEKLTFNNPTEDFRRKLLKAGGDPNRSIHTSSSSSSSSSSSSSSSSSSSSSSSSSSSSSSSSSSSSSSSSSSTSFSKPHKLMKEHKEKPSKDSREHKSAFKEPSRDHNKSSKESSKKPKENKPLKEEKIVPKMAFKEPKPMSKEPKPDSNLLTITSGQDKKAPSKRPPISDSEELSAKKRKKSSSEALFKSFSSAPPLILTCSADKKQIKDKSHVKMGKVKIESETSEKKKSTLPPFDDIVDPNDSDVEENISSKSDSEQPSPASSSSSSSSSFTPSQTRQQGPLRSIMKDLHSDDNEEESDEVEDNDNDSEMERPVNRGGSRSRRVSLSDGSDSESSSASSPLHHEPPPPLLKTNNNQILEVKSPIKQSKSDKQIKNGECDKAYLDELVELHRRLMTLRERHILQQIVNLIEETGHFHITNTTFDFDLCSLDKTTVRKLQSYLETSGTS
rRNA inh HTS OD600 – recorded beside rRNA inh HTS, whose call it bears; OD600 change, %; measured here: OD600 growth;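 optical density of the mix in the first replicate; 0 = DMSO median and -100 = no signal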
rRNA inh HTS RFP – recorded beside rRNA inh HTS, whose call it bears; RFP signal change, %; measured here: RFP humanized mutant strains;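 first replicate; 0 = DMSO median and -100 = no signal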
* marks the source's active call; other numbers are inactive results; i = inactive; ? = inconclusive; . = not tested or not shown; & = joins results of further samples. A portion of the library; count on the stated rates, not on these rows.

SMILES | rRNA inh HTS | rRNA inh HTS OD600 | rRNA inh HTS RFP | FGF22 binding | Vif A3G | HNF4A DNA FP | E coli growth | ALR H2O2 inh | MLL AF4-AF9 inh
Cn1cc(C(=O)N2CCN(c3ccccc3)CC2)c(=O)c2cc(S(=O)(=O)N3CCCC3)ccc21 | 1 | 16 | -0.3 | i | . | -7.0 | 0.71 | 66 | -0.2
O=C(COc1ccccc1)Nc1nnc(-c2ccc3c(c2)CCCC3)o1 | -24 | -53 | -5.0 | i | -5% | 0.0 | 0.71 | 6 | -0.5
C=CCNc1nc2c(c(=O)n(C)c(=O)n2C)n1CCCCCC | . | . | . | . | 22% | -1.5 | 0.73 | 18 | .
N#C[C@H]1[C@H](c2ccc(-c3cccnc3)cc2)[C@@H](CO)N1C(=O)C1CCOCC1 | 7 | 10 | -2.7 | i | . | . | . | . | 1.1
Cc1ccc(SSc2cc(C)ccc2N)c(N)c1 | 1 | 5 | -2.3 | i | . | -2.0 | 0.64 | -5 | -6.0
CCc1cccc(CC)c1NC(=O)C1CCN(C(=O)c2ccco2)CC1 | 0 | 8 | 0.5 | i | -9% | 3.7 | 0.65 | -3 | 0.6
Cc1ccc(Oc2cc(NC(=O)CCCn3nc([N+](=O)[O-])c(Cl)c3C)cc([N+](=O)[O-])c2)cc1 | . | . | . | . | ? | -2.0 | 0.71 | -7 | .
O=C(NCc1ccccn1)c1cc(-n2cnnc2)ccc1Cl | . | . | . | . | 8% | 8.5 | 0.72 | 10 | .
O=C1N(CCCN2C(=O)C3(OCCO3)c3ccccc32)c2ccccc2C12OCCO2 | . | . | . | . | 18% | 0.5 | 0.73 | -2 | .
C=CCNC(=O)C1CCN(c2cc(C)nc(-c3ccccc3)n2)CC1 | 11 | 0 | -0.1 | i | -2% | 0.5 | 0.71 | . | 0.5
COc1ccccc1/C=C1\SC(=S)N(CCC(=O)Nc2cc(C)on2)C1=O | -1 | 2 | -0.8 | i | . | 8.8 | 0.67 | . | 1.3
CCCNC(=O)N[C@H]1C=C[C@H](CC(=O)NCCc2ccccc2)O[C@@H]1CO | 3 | -4 | 0.4 | i | . | . | . | . | 0.1
COc1ccc(C2=CC(=O)C[C@H](c3ccc(OC)cc3)C2)cc1 | -23 | -36 | -14 | i | . | -1.4 | 0.75 | -6 | 0.2
COCC(=O)Nc1ccc2c(c1)OC[C@H](C)NC[C@H](C)[C@H](OC)CN(C)C2=O | 2 | 6 | -0.4 | i | . | . | . | . | 0.8
CCOc1ccccc1CNCCNC(=O)c1nonc1N | 9 | -1 | -2.2 | i | 0% | -1.1 | 0.75 | -5 | -31
Cc1ccc(NC(=O)COc2ccccc2C(=O)NCCN(C)C)cc1 | . | . | . | . | ? | . | 0.65 | 4 | .
COC(=O)c1c(C)[nH]c(C(=O)CN2C(=O)NC3(CCOc4ccccc43)C2=O)c1C (stereo not drawn) | -12 | -15 | 4.0 | i | 14% | 4.5 | 0.69 | 49 | 2.0
Cc1ccc(-c2nnc(SCC(=O)NNC(=O)COc3cccc4ccccc34)n2C)cc1 | 16 | -3 | 1.3 | i | . | . | 0.75 | -3 | -3.4
O=C(CN1C(=O)NC2(CCCC2)C1=O)c1ccc(Cl)s1 | 3 | 6 | -1.6 | i | -3% | 2.3 | 0.69 | -4 | 5.1
COc1ccc(OC)c(Nc2c3ccccc3nc3ccccc23)c1 | -6 | -53 | 9.6 | i | -3% | 2.8 | . | ? | 40*
O=C(C1CCN(S(=O)(=O)c2ccccc2F)CC1)N1CCCC1 | 12 | 8 | 2.3 | i | 3% | -0.6 | 0.63 | . | -0.4
C[C@@H]1CN([C@@H](C)CO)S(=O)(=O)c2ccc(C#CCC3CCCC3)cc2O[C@H]1CN(C)C(=O)CC1CC1 | -9 | -17 | 0.5 | i | . | . | . | . | -2.2
O=C(NCc1ccc(F)cc1)C1CC(=O)N(CCc2ccccc2)C1 (stereo not drawn) | . | . | . | . | 4% | 2.0 | 0.67 | -5 | .
Nc1nc(F)cc(N2CCCCCC2)n1 | 8 | 0 | 0.5 | i | -5% | -7.7 | 0.67 | -13 | 0.0

Three compounds from above, ordered by molar mass, lowest first:
SMILES | rRNA inh HTS | rRNA inh HTS OD600 | rRNA inh HTS RFP | FGF22 binding | Vif A3G | HNF4A DNA FP | E coli growth | ALR H2O2 inh | MLL AF4-AF9 inh
CCOc1ccccc1CNCCNC(=O)c1nonc1N | 9 | -1 | -2.2 | i | 0% | -1.1 | 0.75 | -5 | -31
COc1ccc(C2=CC(=O)C[C@H](c3ccc(OC)cc3)C2)cc1 | -23 | -36 | -14 | i | . | -1.4 | 0.75 | -6 | 0.2
O=C(C1CCN(S(=O)(=O)c2ccccc2F)CC1)N1CCCC1 | 12 | 8 | 2.3 | i | 3% | -0.6 | 0.63 | . | -0.4

Further compounds
SMILES | rRNA inh HTS | rRNA inh HTS OD600 | rRNA inh HTS RFP | FGF22 binding | Vif A3G | HNF4A DNA FP | E coli growth | ALR H2O2 inh | MLL AF4-AF9 inh
O=C(Cc1ccccc1)NNC1CC(=O)N(c2ccccc2)C1=O (stereo not drawn) | 3 | 4 | 2.5 | i | 7% | 1.1 | 0.66 | 38 | -62
N#C/C(=C\c1ccc(Sc2ccccc2)o1)c1nc2ccccc2[nH]1 | 1 | -3 | 6.2 | i | 4% | 11 | 0.69 | -1 | 3.5
C[C@@H]1CN([C@H](C)CO)C(=O)Cc2cc(NC(=O)C3CCCCC3)ccc2O[C@@H]1CN(C)Cc1ccc(-c2ccccc2)cc1 | 2 | 5 | 0.2 | i | . | . | . | . | 0.7
CCn1c(SCC(=O)NC2CCCCC2)nnc1-c1cc2cccc(OC)c2o1 | . | . | . | . | 0% | 0.5 | 0.69 | -7 | .
COc1ccc(CN2C(=O)C(CC(=O)NCCCCc3ccccc3)CC(C(=O)N(C)C)=C2C)cc1 (stereo not drawn) | . | . | . | i | -2% | 1.5 | . | . | 2.6
O=CN1CCN(C(=O)c2ccc3c(c2)OCO3)CC1 | 19 | 16 | 0.6 | i | -2% | 1.3 | 0.72 | -7 | -1.6
COc1cccc(/C=C2\SC(=S)N(CCCC(=O)N3CCCCC3)C2=O)c1 | -20 | -14 | 6.3 | i | 12% | 1.0 | 0.69 | -8 | 0.7
COC(=O)c1cc2c(c3c4ccccc4n(S(=O)(=O)c4cccc(C)c4)c13)C(=O)N(Cc1ccc(N(C)C)cc1)C2 | 5 | 9 | -0.9 | . | . | . | . | . | 1.5
CC(C)CCNC(=O)NC(=O)CSc1nnc(-c2ccccc2Br)o1 | 4 | 5 | 1.9 | i | -5%&-28% | 1.1 | 0.7 | -2 | 2.0
O=C1CCCN1CCCNS(=O)(=O)c1cccs1 | 1 | 9 | -0.9 | i | . | 1.3 | 0.72 | 3 | -1.2
CCN(C(=O)Cc1c(C(=O)O)n(CC)c2ccccc12)c1cccc(C(F)(F)F)c1 | -3 | -12 | 2.0 | i | 7% | 0.1 | 0.67 | 7 | -0.5
COc1ccc(C=NNC(=O)NN=Cc2ccc(OC)c(OC)c2)cc1OC | -15 | 1 | 2.4 | i | 2% | 2.1 | 0.69 | . | -1.2
CC(Oc1ccc2c(=O)c(-c3ccc(Cl)cc3)c(C(F)(F)F)oc2c1)C(=O)O (stereo not drawn) | -7 | -10 | -1.1 | i | 4% | 0.2 | 0.64 | 9 | -0.6
C[C@@H]1CN([C@H](C)CO)C(=O)c2cc(NC(=O)Nc3ccc(C(F)(F)F)cc3)ccc2O[C@@H](C)CCCCO[C@@H]1CN(C)S(=O)(=O)c1cccs1 | -6 | 4 | -5.6 | i | . | . | . | . | -0.6
COc1cc(S(=O)(=O)N2CCOCC2)ccc1NC(=O)CSc1n[nH]c(=O)[nH]c1=O | 5 | 9 | 5.1 | i | 16% | 3.0 | 0.68 | . | 5.1
O=C1c2ccccc2C(Nc2ccc3c(c2)OCO3)N1Cc1ccco1 (stereo not drawn) | 2 | -1 | -4.0 | i | ? | 4.0 | 0.77 | 99* | 18
C/C(N)=C(/C#N)C(=O)COC(=O)CCCNC(=O)c1ccc(Cl)cc1 | 0 | 10 | 8.1 | i | -3% | 0.2 | 0.71 | -5 | -0.7
O=C(CSc1ccc(Cl)cc1)Nc1ccc(N2CCN(C(=O)c3ccco3)CC2)cc1 | . | . | . | . | 4% | -0.7 | 0.71 | -16 | .
Cn1c(O)c(/C=N/Nc2ccccc2)c(=O)n(C)c1=O | 5 | 11 | 14 | i | 8% | 0.2 | 0.62 | 100* | -0.7
C[C@@H]1CCCCO[C@@H](CN(C)Cc2ccc3c(c2)OCO3)[C@H](C)CN([C@@H](C)CO)C(=O)c2cc(NC(=O)Nc3ccc(C(F)(F)F)cc3)ccc2O1 | 4 | -7 | 0.4 | i | . | . | . | . | 2.6
S=C(NCCC(c1ccccc1)c1ccccc1)Nc1ccc(Cl)cc1 | . | . | . | . | -9% | 3.6 | 0.74 | -11 | .
C[C@@H]1CN([C@H](C)CO)C(=O)c2cc(-c3ccc(C#N)cc3)cnc2O[C@@H]1CN(C)CC1CCCC1 | 10 | 4 | -1.7 | i | . | . | . | . | -6.0
C[C@@H]1CCCCO[C@@H](CN(C)S(=O)(=O)c2ccc(Cl)cc2)[C@H](C)CN([C@@H](C)CO)C(=O)c2cc(NS(=O)(=O)c3ccccc3)ccc2O1 | -2 | -6 | 2.0 | i | . | . | . | . | 0.6
CCP(=O)(c1ccccc1)C(C)(C)O (stereo not drawn) | . | . | . | . | -4% | 2.0 | 0.69 | . | .
Nc1nc(-c2ccc3ccccc3c2)cs1 | -24 | -22 | 2.1 | i | . | -0.7 | 0.65 | 98* | 2.7
Cc1ccc(CNC(=O)C2COc3ccccc3O2)cc1 (stereo not drawn) | -2 | -2 | -2.2 | i | -16% | 1.2 | 0.67 | -3 | -4.7
C[C@H]1CN([C@@H](C)CO)S(=O)(=O)c2ccc(-c3cccc(C(=O)N(C)C)c3)cc2O[C@H]1CN(C)C(=O)Nc1ccccc1 | -6 | -1 | -0.3 | i | . | . | . | . | -11
CCOc1ccc(OCCSc2ccc(S(=O)(=O)N3CCN(C)CC3)cn2)cc1 | -57 | -79 | -30 | i | -4% | 0.9 | 0.63 | -6 | 27*
CC(OC(=O)c1c[nH]c2ccccc12)C(=O)N1CCCC1 (stereo not drawn) | 5 | 6 | -1.9 | i | . | 6.6 | . | -3 | 0.2
C[n+]1ccc(/C=C/c2c[nH]c3ccccc23)cc1 | 94 | 19 | 7.3 | i | . | 83 | 0.62 | 72 | 12
COc1ccc2c3c([nH]c2c1)[C@H](CO)N(C(=O)NC(C)C)CC31CN(C(=O)c2cnccn2)C1 | 1 | 12 | 2.0 | i | . | . | . | . | -0.4
C[C@H](NC(=O)c1ncn2c1C(=O)NC[C@H]2C)C(=O)OC(C)(C)C | 2 | 2 | -2.1 | i | 0% | -3.8 | . | . | -2.7
Cc1ccc(C(=O)Nc2ccc3c(c2)OCO3)cc1S(=O)(=O)N1CCCCC1 | . | . | . | . | 10% | 1.8 | 0.65 | -5 | .
CCOc1cc(/C=C2/NC(=O)N(CC(=O)OC)C2=O)ccc1O | 0 | -1 | 0.9 | i | 4% | -1.5 | 0.68 | 96* | -1.4
CC(C)(O)C#Cc1cccc(-c2nc(C(=O)N[C@@H]3CCN(Cc4ccccc4)C3)cc3c2[C@H](CCO)N(S(=O)C(C)(C)C)C3)c1 (stereo partly drawn) | -5 | 0 | 4.4 | i | . | . | . | . | 3.2
